Screens (PubChem)
H5N1 antiviral: antiviral screen in MDCK cells, H5N1 avian flu | cytopathic effect, luminescence, 72 h; stronger effect = higher value; no value below 0 was filed and about half of the inactive calls have no number; reference of the scale not given here | inhibition, % at 50 µM | actives 0.07% (n = 96,000); in the data active means inhibition above about 25%
Starred values were filed as active, the others as inactive; i = inactive.

smiles | H5N1 antiviral
CC1Cn2c(COc3ccccc3)nnc2S1 (stereo unspecified) | i
CC(=O)NC(CC(C)C)C(=O)NC(Cc1ccccc1)C(N)=O (stereo unspecified) | i
O=C(CN1C(=O)C2CCCN2c2ncc(Cl)cc21)NCc1ccc2c(c1)OCO2 (stereo unspecified) | i
Cc1cc(C)n(-c2ccc(C(=O)Nc3ccc(S(=O)(=O)NCc4ccco4)cc3)cc2)n1 | i
CCC(=O)c1cn(CC(=O)OC)c2ccccc12 | 0.1
O=C(CC1COc2ccccc2O1)Nc1ccccn1 (stereo unspecified) | 1.6
O=C(N/N=C/c1ccccc1)c1sccc1OCc1ccc(F)cc1 | 3.6
CCCNC1CCS(=O)(=O)C1 (stereo unspecified) | 0.1
Cc1ccccc1CNC(=O)c1ccccc1 | 0.8
Cc1nnc(NC(=O)Cc2ccc(OCc3c(C)noc3C)cc2)s1 | 0.1
CCOC(=O)CNC(=O)CSc1nc(NCc2ccccc2)nc(N(C)C)n1 | 1.0
CCCOc1ccc(N)cc1N | i
O=C(C1CCCCC1)N1CCN(C(=O)C2CCCCC2)CC1 | 0.1
CC(C)(C)C(=O)Cn1ncc(N2CCCC2)c(Br)c1=O | 0.1
CCn1c(SCc2c(Cl)cccc2Cl)nnc1-c1nn(-c2ccccc2)ccc1=O | 2.8

More entries follow:
smiles | H5N1 antiviral
c1ccc(-c2csc(Nc3ccc4c(c3)OCCO4)n2)cc1 | i
C=CCNC(=O)CSc1nnc(-c2ccccc2Cl)n1-c1c(C)n(C)n(-c2ccccc2)c1=O | i
CCOC(=O)c1c(C)oc2c1c(C=NCc1ccccn1)c(O)c1ccccc12 | 2.0
CCCC(=O)Nc1cc(C)c(NC(=O)Cc2ccccc2)cn1 | 0.6
CCCCC(CC)C(=O)Nc1ccc(C#N)cc1 (stereo unspecified) | i
CCn1c(COc2ccc(C)cc2)nnc1SCC(=O)Nc1ccc(S(N)(=O)=O)cc1 | i
CCCCn1c(SCC(=O)N2CCCC2)nc2c1c(=O)n(C)c(=O)n2C | 0.9
CCOc1ccc(N(CC(=O)NCc2ccco2)S(C)(=O)=O)cc1 | 0.8
CCc1nnc(NC(=O)c2nc3nc(C)cc(C)n3n2)s1 | 1.0
Cc1cccc(CN2CCN(CC(=O)NCc3cccs3)C2=O)c1 | 0.5
CC(=O)NC(CCS(C)(=O)=O)C(=O)Nc1cccc(C(C)=O)c1 (stereo unspecified) | 0.7
COC(=O)c1[nH]c2ccccc2c1NC(=O)CN1CC(C)OC(C)C1 (stereo unspecified) | 0.1
Cc1cccc(OCCCC(=O)Nc2ccc3c(c2)OCO3)c1 | 0.1
CC(C)Oc1ccccc1C1CC(=O)Nc2cc3c(cc21)OCCO3 (stereo unspecified) | 0.4
Cc1onc(-c2ccccc2Cl)c1C(=O)NCC1CCCO1 (stereo unspecified) | 1.2

Next compounds follow:
smiles | H5N1 antiviral
CCOc1cc(-c2cc(-c3ccc(N)cc3)nc(N)c2C#N)ccc1O | i
CCCc1nnc(NC(=O)c2cccs2)s1 | 2.1
CCOC(=O)c1[nH]c(C(=O)O)c(CCC(=O)OC)c1C | 0.5
Cc1cc(NC(=O)CSc2ccc3nnc(-c4cccnc4)n3n2)no1 | 2.1
CCCCSc1nc(O)c(Cc2ccccc2)c(=O)[nH]1 | i
CCOC(=O)N1CCN(C(=O)c2ccc(C#CC3(O)CCCCC3)cc2)CC1 | 0.2
O=C(Nc1ncc(Br)s1)C(Cc1ccccc1)n1cccc1 (stereo unspecified) | 3.3
CCn1c(SCC(=O)c2ccc(Cl)cc2)nnc1-c1cccs1 | 0.5
O=P(OC1CCS(=O)(=O)C1)(c1ccccc1)c1ccccc1 (stereo unspecified) | i
O=C(CCN1C(=O)COc2ccccc21)NCCCN1CCN(c2ccccc2F)CC1 | 0.7
O=C(Nc1nccc(-c2cccs2)n1)c1cccs1 | 5.6
Cc1ccc2cccc(Oc3nnnn3-c3ccccc3)c2n1 | 1.0
Clc1ccc(OCc2nnc(-c3ccccc3Br)o2)cc1 | 0.2
O=C(O)CCc1ccc(-c2ccc(Br)cc2)n1Cc1ccco1 | i
O=C(/C=C/c1cccc([N+](=O)[O-])c1)NCC1CCCO1 (stereo unspecified) | 0.2

The list continues.
smiles | H5N1 antiviral
C/C(=C(\C#N)C(=O)NCCN1CCOCC1)N(C)C | i
Cc1c(C(=O)Nc2ccccc2)oc2c1C(=O)CC(C)(C)C2 | 0.4
Cn1sc(NC(=O)c2cccc(Cl)c2)nc1=O | i
CCOC(=O)Cn1c(=N)n(CCOc2ccc3ccccc3c2)c2ccccc21 | i
CCCc1nc2ccccc2c(=O)n1NC(=O)c1c(O)c2ccccc2[nH]c1=O | i
Cc1ccc(S(=O)(=O)N2CN(Cc3ccco3)c3nc4ccccc4nc32)cc1 | 0.8
Clc1ccc(Cc2nn3c(Cn4nnc5ccccc54)nnc3s2)cc1 | 4.6
COc1cccc(-c2nc(CS(=O)CC(=O)NCc3ccccc3Cl)c(C)o2)c1 (stereo unspecified) | 0.2
COC(=O)c1[nH]c2ccc(C)cc2c1NC(=O)CN1CCN(c2ccccc2)CC1 | 11.4
COc1ccc(Cl)cc1N(CC(=O)Nc1ccccc1C(=O)NCc1ccco1)S(C)(=O)=O | 0.7
COc1cc2[nH]c(=S)n(Cc3ccc(C)o3)c(=O)c2cc1OC | i
Cc1ccccc1OCCCCCn1ccnc1 | i
O=C1CCC/C1=C/Nc1ccc2c(c1)OCO2 | 0.1
O=C(Oc1ccc(=O)n(-c2ccccc2)n1)c1ccccc1 | i
COC(=O)c1sccc1-c1ccc(C(=O)Nc2cccnc2)o1 | 0.1

Continuation:
smiles | H5N1 antiviral
O=C1Nc2ccccc2C1(c1ccccc1)c1ccccc1 | 0.8
Cc1cc(C)c(NC(=O)C2C3/C=C\CCCCC32)c(C)c1 (stereo unspecified) | i
O=C(Nc1nnc(CCS(=O)(=O)c2ccc(Br)cc2)s1)c1ccc([N+](=O)[O-])cc1 | i
O=C(COCCOCC(=O)N(c1ccccn1)C1CCCCC1)N(c1ccccn1)C1CCCCC1 | i
O=C1C(C=Nc2ccccc2O)=C(O)c2ccccc21 | i
O=C(NC1CCCC1)C1CC(c2ccc(F)cc2)=NO1 (stereo unspecified) | 0.2
Cc1nc(-c2ccccc2)nc2[nH]c(=O)n(-c3ccccc3)c(=O)c12 | i
O=C(NCn1ccc(=O)[nH]c1=S)c1ccccc1 | i
CSCCC(NC(=O)c1ccco1)C(=O)OC(C)C(=O)NC(=O)NC1CCCCC1 (stereo unspecified) | i
Cc1c(NC(=O)C(C)OC(=O)CNC(=O)c2ccc(C(C)(C)C)cc2)c(=O)n(-c2ccccc2)n1C (stereo unspecified) | i
CC(C)CC1CC(=O)OC1(C)C(=O)CSc1nc2ccccc2s1 (stereo unspecified) | i
CC1CC(C)CN(CCCNC(=O)C2CCC(=O)N2C2CCCC2)C1 (stereo unspecified) | 1.8
COC(=O)c1cc2sccc2n1Cc1nc(-c2ccc(Cl)cc2)oc1C | i
C=CCc1c(C)nc(SCC(=C)C)[nH]c1=O | i
COCCNC(=O)CN1CCC(n2c(C)nc3cc(C(F)(F)F)ccc32)CC1 | i

(further entries)
smiles | H5N1 antiviral
CCCCC(=O)Nc1ccc(C(=O)Nc2nnc(COC)s2)cc1 | 0.2
Cc1ccc(S(=O)(=O)N2CCOCC2)cc1NC(=O)COC(=O)CSc1ccc(Br)cc1C | i
Cc1cc(C)nc(Sc2nc(Cl)nc(N(c3ccccc3)c3ccccc3)n2)n1 | 0.8
Cc1sc2ncnc(NCC(C)(C)N3CCOCC3)c2c1C | i
CC(C)CCn1c(N2CCOCC2)nc2c1c(=O)n(CC(N)=O)c(=O)n2C | 1.9
Cc1c(C#N)c(NC(=O)c2cccc(Cl)c2)n(Cc2ccccc2)c1C | i
O=C1c2ccccc2-c2c1nc1c([n+]2[O-])CCCC1 | 2.1
O=C(Cn1nnc(-c2ccccc2)n1)N=Nc1c(O)[nH]c2ccccc12 | 0.5
O=C(Nc1sccc1C(=O)NCc1ccco1)c1cccnc1 | 5.1
CCOC(=O)N1CCC(NC(=O)c2cccn3c(=O)c4cc(Br)ccc4nc23)CC1 | 0.3
CCOC(=O)C1CCCN(C(=O)CN2C(=O)c3ccccc3C2=O)C1 (stereo unspecified) | i
Cn1c(Cn2cnc(Cl)c2Cl)nc2ccccc21 | i
Cc1nn(C)c(C)c1S(=O)(=O)N1CCC(C(=O)NC2CCCCC2)CC1 | i
Cc1cc(C)n(-c2ccc(C(=O)Nc3ccccn3)cc2)n1 | i
CCOc1ccccc1OCCCC(=O)NC1=NCCS1 | i

Given field by field: part of the list above
Cc1sc2ncnc(NCC(C)(C)N3CCOCC3)c2c1C
  H5N1 antiviral = i

CC(C)CCn1c(N2CCOCC2)nc2c1c(=O)n(CC(N)=O)c(=O)n2C
  H5N1 antiviral = 1.9

Cc1c(C#N)c(NC(=O)c2cccc(Cl)c2)n(Cc2ccccc2)c1C
  H5N1 antiviral = i

O=C1c2ccccc2-c2c1nc1c([n+]2[O-])CCCC1
  H5N1 antiviral = 2.1

Additional entries follow:
smiles | H5N1 antiviral
CC1C(=O)CCN(C(C)(C)C)C1C (stereo unspecified) | 0.6
CC(=O)N(C)c1ccc(NC(=O)c2ccco2)cc1 | 0.4
CS(=O)(=O)NCCC1=CCCCC1 | i
COc1ccc(N=C2S/C(=C\c3cc(C)n(C)c3C)C(=O)N2CC(C)C)cc1 | i
O=C(COc1ccc(Br)cc1)N1CCN(Cc2c[nH]c3ccccc23)CC1 | i
O=C(NCC1COc2ccccc2O1)C1C2C=CC3(CN(Cc4ccccc4Cl)C(=O)C13)O2 (stereo unspecified) | i
CCOc1ccc(C2C=C(c3ccccc3)Nc3nnnn32)cc1 (stereo unspecified) | 1.1
COCCn1c(SCC(=O)Nc2ccc(Cl)c(S(=O)(=O)N(C)C)c2)nc2ccccc21 | i
Cc1ccc2cc3cc(C(=O)N4CCN(C(=O)c5ccco5)CC4)sc3nc2c1 | i
CC(=O)Nc1ccc(N2CCN(Cc3ccccc3F)CC2)cc1 | 1.3
CCCCc1nnc(NC(=O)C=C(C)C)s1 | i
CON(C)C(=O)Nc1ccc(Cl)cc1 | 0.3
CC(CN(C(N)=O)c1ccccc1O)C(=O)O (stereo unspecified) | 0.7
Oc1ccc2[nH]ccc2c1 | i
CCOC(=O)CCn1nc(-c2ccc(Cl)cc2)cc1N | 0.6

The results go on:
smiles | H5N1 antiviral
Cc1cc(NC(=O)c2ccc(S(=O)(=O)N3CCOCC3)cc2)nc2c1c(=O)oc1ccccc12 | i
O=C(Cn1ncc2ccccc21)N1CCc2ccccc21 | 0.1
COc1cc2c(cc1NC(=O)C(C)Sc1ccc(C)cc1)oc1ccccc12 (stereo unspecified) | i
Cc1cccc(C(=O)NC2CC(C)(C)NC(C)(C)C2)c1 | 0.8
O=c1oc2ccccc2c(Nc2ccc3ccccc3c2)c1[N+](=O)[O-] | i
Cc1nn(Cc2ccc(C(=O)Nc3ccccc3C(F)(F)F)o2)c(C)c1Br | 0.3
O=C(c1ccc(Cn2c(=O)[nH]c3ccccc3c2=O)cc1)N1CCN(c2ccc(Cl)cc2)CC1 | 0.7
CC(=O)Nc1ccc(OC(=O)c2cccnc2)cc1 | 2.1
CCOC(=O)N1CCC(NC(=O)c2oc3c(c2C)-c2[nH]ncc2CC3)CC1 | 0.6
CCC(=O)NCCn1ccc2ccccc21 | i
CC(/C=C/c1ccccc1)NC(N)=O (stereo unspecified) | i
CN1/C(=C\C(=O)c2cccs2)Sc2ccccc21 | i
Cn1cnc2c1c(=O)n(CC(O)CO)c(=O)n2C (stereo unspecified) | i
COc1cc(/C=N/NC(=O)CCc2c(C)n[nH]c2C)ccc1O | 2.1
CCCC(=O)Nc1ccc(C(=O)N/N=C2\CC(=O)CC(C)(C)C2)cc1 | i

Molecules above with a COOH group:
smiles | H5N1 antiviral
CCOC(=O)c1[nH]c(C(=O)O)c(CCC(=O)OC)c1C | 0.5
O=C(O)CCc1ccc(-c2ccc(Br)cc2)n1Cc1ccco1 | i
CC(CN(C(N)=O)c1ccccc1O)C(=O)O (stereo unspecified) | 0.7

Next part
smiles | H5N1 antiviral
O=C(Cn1c(=O)n(Cc2ccc3c(c2)OCO3)c(=O)c2ccccc21)N1CCCc2ccccc21 | 0.3
CCn1c(=N)n(CC(=O)C(C)(C)C)c2ccccc21 | 1.3
Cc1ccc2cc(C(c3nnnn3Cc3ccccc3)N3CCc4ccccc43)c(=O)[nH]c2c1C (stereo unspecified) | 0.1
N#CCCn1cc(/C=N/O)c(-c2ccc(Cl)cc2)n1 | i
COC(=O)c1oc2c(c1C)C1(CCC2)SCCS1 | 0.6
CCN(CC)c1ccc(/C=C(/C#N)c2nc3ccccc3[nH]2)c(OC(C)C)c1 | 0.8
Cc1ccc(-c2cc(-c3nnc(SCC(=O)N(C)CCC#N)n3N)c3ccccc3n2)cc1 | i
COCCNC(=O)C(c1ccc(C)o1)N(Cc1ccc(F)cc1)C(=O)Cn1nnc2ccccc21 (stereo unspecified) | i
O=C(c1nc2ccccc2s1)N1CCN(c2ccccn2)CC1 | 1.0
O=C(Oc1ccc(OC(=O)N2CCCCC2)cc1)c1ccccc1 | 0.2
COc1ccc([C@H]2[C@H](C(=O)C(C)(C)C)N3N=Cc4ccccc4C3[C@]23N=C(c2ccccc2)OC3=O)cc1OC (stereo partly specified) | i
CC(=O)Nc1ccc(NC(=O)CNS(=O)(=O)c2ccc(C)cc2)cc1 | 1.1
CCCC(=O)Nc1ccccc1N1CCN(C(=O)C(C)C)CC1 | 0.2
Cc1cc(C)c(S(=O)(=O)N2CCC(C(N)=O)CC2)cc1C | i
CCOC(=O)N1CCN(Cc2ccccc2F)CC1 | 0.9
CCOc1ccc2nc(NC(=O)CSc3nnnn3C3CCCCC3)sc2c1 | 0.0
COc1cc(C(=O)OCCN2CCCCC2)ccc1O | 3.3
CC(C)(C)NC(=O)Cn1c(SCC(=O)NCc2cccs2)nc2ccccc21 | i

Not all compounds are listed; the hit share may differ from the screen's.
